HCMV UL50-53 inh: inhibitors of HCMV UL50-UL53 interaction, biochemical, HTRF. normalized percent inhibition. 190,000 compounds, 0.15% hits. HCMV UL50-UL53 nuclear egress complex (human cytomegalovirus). inhibition, % (test concentration not listed);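 active = both replicates at 50% or more, plus weaker picks with an unusually low signal ratio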;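 note: stock transfer was 100 nL into about 20 µL; 0% = negative control wells and 100% = wells with untagged competitor protein; inactives centre near -12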
Sa growth 42C: S. aureus growth inhibition at 42 and 30 °C, primary screen, LtaS inhibitor project, RN4220, two temperatures. OD600, 20 h, 42 °C; active compounds read low. relative growth, % (concentration not given with the values). 170,000 compounds, 0.53% hits. AID 720641, 2013;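 active = growth at 42 °C up to 50% and 20 or more points under that at 30 °C, or under 10% at both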;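 note: 300 nL library stock went into each well; scaled to the means of positive and negative controls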
GIV Gai3 FP: inhibitors of GIV peptide binding to Galpha-i3, primary screen, biochemical, fluorescence polarization, FITC-GIV GBA peptide, rat Galphai3. Guanine nucleotide-binding protein G(i) subunit alpha-3 (Rattus norvegicus), P08753. 90 min; active compounds read low; scaled: aluminum fluoride 0%, vehicle 100%. percent of control (FP), % (concentration not given with the values). 210,000 compounds, 0.42% hits. AID 1224905, 2016;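 active = replicate mean at 85% of control or lower, very high polarization wells dropped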;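 note: wells of about 15 µL received 100 nL stock; the first replicate is given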
Target sequence (P08753 whole entry, looked up): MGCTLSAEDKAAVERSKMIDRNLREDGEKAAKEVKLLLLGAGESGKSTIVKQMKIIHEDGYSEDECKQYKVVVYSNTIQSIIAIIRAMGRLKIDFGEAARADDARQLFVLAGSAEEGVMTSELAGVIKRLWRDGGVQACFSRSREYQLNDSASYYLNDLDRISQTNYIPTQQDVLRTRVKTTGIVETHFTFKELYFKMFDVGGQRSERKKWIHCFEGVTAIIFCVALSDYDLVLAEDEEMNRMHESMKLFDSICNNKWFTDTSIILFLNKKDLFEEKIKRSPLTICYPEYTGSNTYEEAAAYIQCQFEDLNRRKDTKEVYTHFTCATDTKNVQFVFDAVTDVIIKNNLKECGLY
Sa growth 42C second temp: also measured in Sa growth 42C; calls as there; relative growth, %; measured here: growth at 30 °C;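 optical density after 20 h as mean of two plates; 100% = untreated growth and lower means inhibition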
An asterisk follows results filed as active; · = not tested or not shown; & = joins results of further samples. Compounds were not picked by outcome (roughly 0.79% active in at least one column).

SMILES	HCMV UL50-53 inh	Sa growth 42C	Sa growth 42C second temp	GIV Gai3 FP
COc1ccccc1CNC(=O)CCc1c(OC)nc2c(c(C)nn2-c2cccc(F)c2)c1C	-25.3	·	·	104.6
CCOC(=O)N1CCN(CCC(=O)Nc2cc(OC)cc(OC)c2)CC1	-33.5	86.6	84.6	94.9
COc1ccc(NC(=O)c2cccc(C)c2)cc1CN1CCn2c(nc3ccccc32)C1	-20.9	·	·	98.5
Cc1ccc2nc(-c3cccc(-c4nc5ccc(C)cc5o4)c3)oc2c1	-10.8	94.8	81.3	98.7
Cc1cc(C)c2ccc(NC(=O)c3ccc(C(F)(F)F)cc3)nc2n1	-1.0	122.9	93.7	107.7
C/C(=N\NC(=O)c1ccccc1)c1ccccc1	-3.1	95.3	98.3	101.9
C=Cc1ccc(Cn2c(=O)n(-c3cccc(C)c3)c(=O)c3c2c2cc(C)ccc2n3C)cc1	·	91.8	85.3	110.9
CSc1nnc2c(n1)OC(c1ccccc1F)Nc1ccccc1-2 (stereo unspecified)	-17.0	·	·	103.6
O=C(/C=N/Nc1nc2ccccc2o1)c1ccccc1	-40.4	58.4	44.6	·
COc1cccc(-c2nn(C)c3sc(C(=O)NCC4CCN(Cc5cccc(C)c5)CC4)cc23)c1	-12.3	·	·	96.2
CN1CCc2c(c3ccccc3n2Cc2ccccc2)C1	5.3&-12.8	78.2	95.1	·
CC(=O)Oc1cccc(N2C(=O)C3C4C=CC(CC4)C3C2=O)c1 (stereo unspecified)	-14.5	·	·	100.2
CCCOc1ccc(C2C(=O)N(C3CCCCCC3)CC(=O)N2C(C)C)cc1OC (stereo unspecified)	·	112.8	86.8	105.2
CCCCCC[C@@H]([C@@H](C)O)n1cnc2c(N)ncnc21	2.3&-32.7	·	·	102.1
Cc1c(C(=O)N2CCCC2)cccc1-n1nnc2cccnc21	3.5	·	·	108.3
CCN(CC)C(=O)c1sc2c(c1C)c(=O)n(CCc1ccccc1)c(=O)n2Cc1ccc(F)cc1Cl	·	76.5	85.1	98.0
Cc1nc2ccccn2c(=O)c1Cc1nnc(SCc2cc(=O)c3cccc(C)c3[nH]2)n1C	-30.1	·	·	104.1
CC(=O)Oc1ccc(Br)cc1C1OC(c2cc(C3CC3)nc3ccccc23)=NN1C(C)=O (stereo unspecified)	-28.0	·	·	101.7
COc1ccc(NC(=O)N2CCN(Cc3nc4ccc(C)cc4o3)CC2)cc1OC	·	91.5	81.7	108.2
CCOC(=O)/C(C)=N/Nc1cc(C)cc(C)c1	-49.6	92.7	87.0	104.5
COc1ccc(C)cc1NC(=O)c1cc2c(s1)CCC2	-34.4	97.5	89.5	·
COc1ccc(NC(=O)CCC(=O)O)cc1OC	-13.4	88.8	84.7	98.5
O=C(NCCc1ccccc1)c1cc2c(ccc3ccccc32)o1	·	97.5	85.5	102.7
CC(O)c1nc2ccccc2n1C(F)F (stereo unspecified)	-30.3	85.1	86.2	·
COc1ccc(NC(=S)NN)cc1Cl	-29.7	80.3	43.2	103.4

An excerpt from above in order of their number in GIV Gai3 FP, descending:
compound | GIV Gai3 FP
C/C(=N\NC(=O)c1ccccc1)c1ccccc1 | 101.9
CC(=O)Oc1ccc(Br)cc1C1OC(c2cc(C3CC3)nc3ccccc23)=NN1C(C)=O (stereo unspecified) | 101.7
Cc1ccc2nc(-c3cccc(-c4nc5ccc(C)cc5o4)c3)oc2c1 | 98.7

New compounds follow:
SMILES	HCMV UL50-53 inh	Sa growth 42C	Sa growth 42C second temp	GIV Gai3 FP
Cc1ccc2c(=O)cc(C(=O)Nc3ccc(S(=O)(=O)N4CCCCCC4)cc3)oc2c1C	-13.7	96.9	84.4	99.0
COC(CNC(=O)c1c[nH]c2ccc(S(=O)(=O)N3CCOCC3)cc2c1=O)OC	-31.7	100.6	85.8	103.9
Cc1cc(Nc2ccccc2)n(C(C)(C)C)n1	0.4	95.4	90.9	·
CCC(Sc1nc(-c2ccccc2)[nH]c1S(=O)(=O)c1ccc(C)cc1)C(=O)O (stereo unspecified)	-31.4	107.8	84.8	102.1
COc1ccc(OC)c(C(=O)c2c(N)c(-c3nc(-c4ccc(C)cc4)cs3)c3ccccn23)c1	-7.2	·	·	101.8
CCOc1ccc(NC(=O)CCCOc2cc(=O)n(C)c3ccccc23)cc1	-12.5	101.4	94.1	100.4
COc1ccccc1Cc1nc2ccccc2nc1SCC(=O)NCc1ccc(F)cc1	·	84.5	84.8	97.8
CCCCN1CCCc2cc(CN(CCCN3CCOCC3)C(=O)Nc3ccc(CC)cc3)ccc21	·	129.6	92.2	104.9
COc1ccc(-c2nc3ccccc3o2)cc1NC(=O)c1cccc2c(Cl)cccc12	-13.4	111.6	85.7	107.6
COc1ccc(C(=O)c2sc3nc4c(c(C(F)(F)F)c3c2N)CN(C(C)=O)CC4)cc1OC	-162.7	106.7	83.7	217.2
O=C(O)c1cc(NS(=O)(=O)c2ccc3c(c2)CCCC3)ccc1N1CCN(C2CCCCC2)CC1	-11.9	·	·	107.3
CC(=O)Nc1ccc(C(C#N)c2ccccc2)cc1 (stereo unspecified)	-4.2	89.5	86.7	·
Cc1ccc(-c2nn(CCC#N)cc2C#N)cc1	4.0	87.5	87.8	·
S=c1[nH]nc(CN2CCCC2)n1-c1ccccc1	-3.4	83.5	92.2	·
O=C(CSc1nc(=O)n2ccccc2n1)Nc1ccccc1	-16.4	106.8	86.4	104.2
O=C(CNS(=O)(=O)c1ccccc1)NCC1CCCO1 (stereo unspecified)	-11.1	102.1	78.1	106.4
CC(C)(C)NC(=O)Nc1ccc(S(=O)(=O)N2CCCC2)cc1	-21.8	67.2	93.3	·
Cc1cccc(N2CCN(C(=O)c3cccc(N4CCCC4=O)c3)C(C)C2)c1 (stereo unspecified)	0.7	107.7	86.5	99.8
CCCc1c(C(=O)OCC)nnc2c(-c3ccc(Br)cc3)c(C)nn12	-41.7	·	·	100.0
COc1cccc(NC(=O)Cn2nc(-c3ccncc3)ccc2=O)c1	·	105.0	82.7	102.3
O=C(O)c1cccnc1SC1CC(=O)N(c2ccc([N+](=O)[O-])cc2)C1=O (stereo unspecified)	-35.2	·	·	100.5
COc1ccc(S(=O)(=O)NCc2ccc(C(=O)N(C)Cc3ccco3)cc2)cc1	11.5	114.6	99.8	106.4
O=C1OC(c2ccccc2)=N/C1=C/c1ccco1	-27.8	91.4	82.6	105.2
Clc1cccc2c(NCCCN3CCOCC3)cnnc12	-79.2	102.2	87.4	100.4
O=C(O)c1ccccc1N=Cc1c(O)[nH]c2ccccc12	·	89.5	93.5	104.0
Next structures
SMILES	HCMV UL50-53 inh	Sa growth 42C	Sa growth 42C second temp	GIV Gai3 FP
CCSC1=NN2CCS(=O)(=O)N=C2S1	-6.4	94.7	95.8	·
Cc1cccc(N2CCN(c3cccc(C)c3)C2c2cccnc2)c1	-12.2	121.8	93.6	106.5
CCC(CC)C(=O)NCC1(N2CCN(C)CC2)CCCCC1	7.0	·	·	105.8
CCC(=O)N1CCN(c2nc(C(C)C)nc3sc4c(c23)CCCC4)CC1	-17.8	90.8	78.3	98.4
COc1ccc(NC(=O)C(c2ccccc2)N(C)C(=O)Cc2cccs2)cc1 (stereo unspecified)	8.3	112.2	92.7	101.8
Cc1ccc(C(=O)OCC(=O)NC2CCCCC2)s1	-43.3	115.9	85.8	·
COc1cc(CO)c(CC(=O)NN)cc1OC	-2.0	95.3	88.4	99.7
CC(C)(CC(=O)O)CC(=O)Nc1ccccc1Oc1ccccc1	11.3	127.1	96.5	106.9
O=C(CSc1nc2ccc(Nc3nc(N4CCOCC4)nc(N4CCOCC4)n3)cc2s1)NCc1ccco1	-25.0	·	·	107.6
Cc1ccc(Sc2ccc(N3CCC(C(=O)Nc4ccc(Cl)cc4)CC3)nn2)cc1	-3.5	92.6	85.5	101.0
COc1ccc(-n2nc(C(=O)N(C)Cc3ccccc3)c3c4ccccc4n(C)c3c2=O)cc1	2.2	116.6	91.0	96.9
Cc1cccc(C(=O)OCCN2CCOCC2)c1	0.7	94.0	87.8	·
Cc1[nH]c2ccccc2c1Cc1n[nH]c(=S)o1	·	91.4	85.0	103.1
N#Cc1cccc(C(=O)NCCc2ccc3c(c2)OCCO3)c1	7.3	102.6	92.7	·
O=C(CSc1nccn1Cc1ccccc1)N1CCN(C(=O)c2cccs2)CC1	-31.9	67.2	86.5	·
CCOC(=O)c1noc2nc(C)n(CC(=O)Nc3cccc(OC)c3)c(=O)c12	·	103.8	99.1	100.1
Cc1cc(C)c(NC(=O)Cn2nnc(-c3nc(-c4ccncc4)no3)c2N)c(C)c1	·	106.1	89.9	105.6
Cn1cc(C(=O)Nc2ccc(Br)cc2)c2[nH]c(=O)n(-c3ccccc3)c(=O)c21	-23.6	·	·	101.2
CC1CCCCN1C(=O)c1cccc(C#N)c1 (stereo unspecified)	-7.5	99.4	100.3	·
O=C(Nc1ccc2nc(SCC(=O)N3CCOCC3)sc2c1)c1ccc(Cl)cc1	-19.5&-5.3	104.7	94.5	103.0&104.6
O=C(c1c(F)cccc1F)N1CCN(C/C=C/c2ccccc2)CC1	11.0	96.3	104.0	104.3
COc1cccc2c(C)nc(Nc3nc4ccccc4c(=O)[nH]3)nc12	-4.3	·	·	108.5
Cc1ccccc1OC1OCCOC1Oc1ccccc1C (stereo unspecified)	-14.6	102.9	100.4	·
Cc1csc(NC(=O)C(NC(=O)c2ccccc2)C(C)C)n1 (stereo unspecified)	-34.5	122.9	78.1	·
CCOc1ccc(OCCCl)cc1	8.6	104.0	100.9	·

An excerpt from further up, for reference:
SMILES	HCMV UL50-53 inh	Sa growth 42C	Sa growth 42C second temp	GIV Gai3 FP
CCSC1=NN2CCS(=O)(=O)N=C2S1	-6.4	94.7	95.8	·
Cc1cccc(N2CCN(c3cccc(C)c3)C2c2cccnc2)c1	-12.2	121.8	93.6	106.5
CCC(CC)C(=O)NCC1(N2CCN(C)CC2)CCCCC1	7.0	·	·	105.8
CCC(=O)N1CCN(c2nc(C(C)C)nc3sc4c(c23)CCCC4)CC1	-17.8	90.8	78.3	98.4
COc1ccc(NC(=O)C(c2ccccc2)N(C)C(=O)Cc2cccs2)cc1 (stereo unspecified)	8.3	112.2	92.7	101.8
Cc1ccc(C(=O)OCC(=O)NC2CCCCC2)s1	-43.3	115.9	85.8	·

Further entries follow:
SMILES	HCMV UL50-53 inh	Sa growth 42C	Sa growth 42C second temp	GIV Gai3 FP
CNC(=O)C1CCC(Cn2c(=O)c3sccc3n(CC(=O)Nc3ccc(C)c(C)c3)c2=O)CC1 (stereo unspecified)	·	75.2	72.7	97.5
Cc1c(C(=O)N2CCC(C)CC2)oc2ccc3c(c12)C(O)CC(C)(C)O3 (stereo unspecified)	-22.6	·	·	102.5
O=C1COc2ccccc2N1CC(=O)N(CC1CCCO1)C1CCS(=O)(=O)C1 (stereo unspecified)	18.0	104.6	98.6	·
O=C(O)CCC(=O)NC1CCCCC1	7.2	84.8	100.2	·
CCCCOc1ccc(C(=O)NC2CCN(C)CC2)cc1	2.2	99.0	104.9	108.7
Cc1nc(N)nc2c1CCCC2	-15.9	83.0	92.1	·
CCC(C)NC(=O)CCn1c(=O)c2ccccc2n2c(=S)[nH]nc12 (stereo unspecified)	-12.0	·	·	102.4
CC(C)(C)C(=O)C1=C(O)C(=O)N(c2ccccc2)C1c1ccccc1 (stereo unspecified)	-6.7	91.4	84.7	101.9
Cc1ccc(-c2c3c(=O)n(C)c(=O)n(C)c3c3c(C(F)(F)F)nc4ccccc4n23)cc1	-34.9	107.9	88.2	105.6
NC(=O)C1CCN(Cc2nc3ccccc3c(=O)[nH]2)CC1	-29.7	89.1	79.0	96.9
O=C(CN1C(=O)CCSc2ccccc21)N1CCc2ccccc21	1.4	90.9	84.5	102.5
COc1cc(NC(=O)C2CCN(S(=O)(=O)c3cc(-c4noc(C)n4)sc3C)CC2)cc(OC)c1	-6.0	·	·	103.2
CCCc1nnc(NC(=O)Cc2coc3ccc(C)cc23)s1	-7.0	105.3	86.7	104.5
O=C(O)c1cccn1-c1ncc(C(F)(F)F)cc1Cl	-3.8	·	·	103.2
CCCCOc1ccc(S(=O)(=O)Nc2ccc(-c3ccc(N4CCCCC4)nn3)cc2)cc1	·	110.6	103.1	109.7
CC(C#N)(NC(=O)CN1CCN(S(=O)(=O)c2ccccc2Cl)CC1)C1CC1 (stereo unspecified)	-28.2	83.8	96.4	·
CC1(C)CN(C(=S)Nc2ccc(F)cc2F)C1=O	-28.0	96.3	92.2	107.3
COc1ccc(C2=CC(c3sccc3C)n3nnnc3N2)cc1 (stereo unspecified)	4.3	92.7	96.6	104.7
O=C(c1cccc2c1OCCCO2)N(Cc1ccccn1)Cc1ccccn1	-5.4	100.1	75.3	96.6
CCOc1ccccc1N(CC(=O)NC)S(C)(=O)=O	-11.2	106.0	53.6	102.7
COc1ccc(/C=C/C(=O)Nc2ccc3nc(N4CCCCC4)cc(C)c3c2)cc1OC	-8.0	86.3	41.8	104.3
CCc1ccc(N2COc3ccc4c(CC)cc(=O)oc4c3C2)cc1	-30.7	102.1	85.6	102.4
COC(=O)c1ccccc1NC(=O)c1cnc2sc(N3CCOCC3)nn2c1=O	·	89.6	96.7	101.0
COc1ccc(-n2nc(C(=O)Nc3ccccn3)c(=O)n(C)c2=O)cc1	-74.9	·	·	99.3

Bioassay records deposited in PubChem by ICCB-Longwood Screening Facility, Harvard Medical School.
